LANA-H2B inh = blocks KSHV LANA binding to histone H2A/H2B. Q9QR71. cell-free LANA-H2A/H2B peptide, fluorescence polarization. inhibition, % (concentration not given with the values). 0.6% of 320,000 active. AID 2629; in the data active = inhibition mostly above about 10%, no sharp cut-off; inactive = mostly below about 6.7%;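 note: stock transfer was 7.5 nL into about 10 µL; 0% = median of vehicle wells and 100% = median of positive control wells; one replicate is shown; the record names a cut of 25% in any replicate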
ALR H2O2 inh = blocks human ALR sulfhydryl oxidase activity. 3.8% of 290,000 active. purified ALR, DTT oxidation, H2O2 HRP-luminol luminescence. P55789. AID 485317. inhibition, % (test concentration not listed);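 active = mean and each replicate at 75% or more; inconclusive = only one of the two met; inactive = neither met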;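 note: stock transfer was 7.5 nL into about 7.5 µL; 0% = neutral wells and 100% = wells with inactivated enzyme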
Target sequence (P55789 whole entry, looked up): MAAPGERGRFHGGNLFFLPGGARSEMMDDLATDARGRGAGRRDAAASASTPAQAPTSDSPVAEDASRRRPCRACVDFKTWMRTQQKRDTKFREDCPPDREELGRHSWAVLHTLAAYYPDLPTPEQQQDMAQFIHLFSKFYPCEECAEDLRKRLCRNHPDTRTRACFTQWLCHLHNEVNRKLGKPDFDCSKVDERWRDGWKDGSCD
UCH37 inh = inhibitors of human deubiquitinating enzyme UCH37. 0.33% of 330,000 active. inhibition, % (no concentration beside the values). purified proteasome/UCH37, Ub-AMC cleavage fluorescence. Q9Y5K5;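 active = mean of two replicates above 20%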;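 note: 0% = compound-free wells with enzyme and 100% = wells lacking proteasome; stock transfer was 100 nL into about 20 µL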
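Material: human UCH37 enzyme supplied as purified proteasome complex / Amount: 0.15 nM proteasome as dispensed / Buffer or medium: pH 7.4 Tris-HCl (50 mM) with ovalbumin, ATP-MgCl2, DTT / Times: preincubation 30 min, reaction 25 min, room temperature / Technique: AMC fluorescence from Ub-AMC cleavage, excitation 355 nm, emission 460 nm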
FGF22 binding = shifts melting point of recombinant human FGF22 | Q9HCT0 | 1.5% of 340,000 active | recombinant FGF22 thermal shift, SYPRO orange fluorescence; percent of sucrose octasulfate shift, DMSO zero | AID 651658 | calls only at 9.99 µM;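 active = melting point raised past a set limit in the mean and every replicate; inconclusive = no clear call; three in four hits are not shown here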
Target sequence (Q9HCT0 whole entry, looked up): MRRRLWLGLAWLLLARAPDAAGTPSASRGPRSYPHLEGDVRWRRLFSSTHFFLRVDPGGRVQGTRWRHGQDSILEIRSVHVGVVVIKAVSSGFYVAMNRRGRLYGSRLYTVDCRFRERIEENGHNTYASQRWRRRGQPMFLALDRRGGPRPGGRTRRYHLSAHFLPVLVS
HNF4A DNA FP = change in binding of human HNF4 alpha to DNA; P41235; HNF4a-FITC DNA binding, fluorescence polarization, 1 h; activity change, % at 10 µM; 0.3% of 360,000 active; in the data active = activity change above about 30%, passing the limit was not always enough;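 note: controls were the assay level and a saturating level of protein; the project sought stronger binding though the title names inhibitors; some compounds called inactive have numbers as strong as hits; positive values seem to mean higher polarization but the record does not say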
B2AR ag = agonists of human beta-2 adrenergic receptor inducing internalization; Am2.2-beta2AR cells, FAP receptor internalization, flow cytometry; reference of the scale not given here; AID 504454; 0.43% of 340,000 active; P07550; response, % (concentration not given with the values);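 active = response above a set limit, near 3 SD of response in nonfluorescent compounds, cut at about 42% in these data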;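 note: stock transfer was 100 nL into about 11 µL; a reference agonist was the positive control; negative values mostly stem from fluorescent compounds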
Target sequence (P07550 whole entry, looked up): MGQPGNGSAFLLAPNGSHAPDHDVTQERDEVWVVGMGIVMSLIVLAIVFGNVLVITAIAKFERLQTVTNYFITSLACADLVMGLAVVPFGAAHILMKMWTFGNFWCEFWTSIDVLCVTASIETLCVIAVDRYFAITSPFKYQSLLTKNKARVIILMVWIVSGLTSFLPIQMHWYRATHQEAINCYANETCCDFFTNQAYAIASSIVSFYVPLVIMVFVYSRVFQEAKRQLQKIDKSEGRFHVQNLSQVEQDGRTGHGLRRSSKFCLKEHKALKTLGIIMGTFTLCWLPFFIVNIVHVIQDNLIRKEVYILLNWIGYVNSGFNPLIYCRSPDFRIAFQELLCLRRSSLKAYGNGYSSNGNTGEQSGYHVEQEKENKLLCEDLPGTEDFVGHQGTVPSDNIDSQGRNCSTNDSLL
E coli growth = blocks Escherichia coli growth. OD600 absorbance (concentration not given with the values). 0.21% of 330,000 active. AID 1053175. OD600, 23 h; stronger effect = lower value;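 active = OD600 absorbance below the run mean of sample wells minus 3.6 SD, in any replicate, cut at about 0.56 in these data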;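 note: stock transfer was 300 nL into about 60 µL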
The depositor's hits bear a star; i = inactive; u = inconclusive; x = not tested or not shown. These rows are one share of the data, so the mix of outcomes need not match the whole.

SMILES	LANA-H2B inh	ALR H2O2 inh	UCH37 inh	FGF22 binding	HNF4A DNA FP	B2AR ag	E coli growth
CCOc1ccc(CN(C)C(=O)CNC(=O)c2sc3ccccc3c2Cl)cc1	1.5	x	3.1	i	5.9	-3	0.66
O=C(c1ccco1)N1CCN(C(=O)c2ccc(-c3ccc([N+](=O)[O-])cc3)o2)CC1	-1.1	-6	14	i	-28	3	0.69
Nc1ccc(-c2ccc(N)cc2C(F)(F)F)c(C(F)(F)F)c1	-7.5	-3	4.6	x	-2.0	4	0.75
Cc1oc(-c2ccccc2F)nc1CS(=O)CC(=O)NCCN1CCCCC1C (centres undefined)	0.6	u	-0.2	i	0.0	0	0.68
COC(=O)C1=C(C)N(C)C(=S)NC1c1ccc(OC)cc1OC (centres undefined)	-1.9	1	2.4	i	1.7	1	0.74
Cc1cc2c(c(C)nn2-c2ccccc2)c(=O)o1	4.3	-3	0.2	x	0.5	-4	0.76
CCC1(O)C(=O)OCc2c1cc1n(c2=O)Cc2cc3cc(O)ccc3nc2-1 (centres undefined)	x	x	x	i	-73	7	x
CCOC(=O)C1=C(COC(=O)c2ccc(C)s2)NC(=O)NC1C (centres undefined)	-2.8	4	-0.3	i	0.2	-3	0.62
COCCNC(=O)CC(=O)N/N=C/c1ccc(C(=O)OC)cc1	-1.5	x	x	x	2.8	2	x
C/C(Cl)=C\Cn1c(Nc2ccccc2)nc2c1c(=O)n(C)c(=O)n2C	2.0	87*	1.4	x	0.1	-7	0.69
Cc1cccc(Cl)c1NNC(=O)Nc1c([N+](=O)[O-])c(C)nn1C	-2.0	3	3.3	i	-5.6	7	0.67
CCOc1ccc(NC(=O)CSc2nc(-c3cccs3)cc(C(F)(F)F)n2)c([N+](=O)[O-])c1	3.0	x	5.9	i	11	-1	0.7
CC1(c2nnc(-c3cccc(Cl)c3)o2)CC(c2ccc(OC(F)(F)F)cc2)=NO1 (centres undefined)	3.3	-2	3.9	i	-6.4	-5	0.71
O=C(N/N=C/c1cccnc1)c1ccc(F)cc1	1.2	-2	x	i	-0.5	-6	x
Cc1cc(Cl)ccc1N(CC(=O)NCCSCc1ccco1)S(C)(=O)=O	-5.5	2	1.6	i	-4.4	1	0.72
CC(Oc1ccc(Cl)cc1)c1ccnn1S(=O)(=O)c1ccc(Cl)cc1 (centres undefined)	-3.4	-2	0.8	x	-0.3	5	0.69
Cc1ncsc1C(=O)N1CCCC(CNS(=O)(=O)c2cccs2)C1 (centres undefined)	7.8	-10	5.8	i	0.0	3	0.65
CCOC(=O)CCNC(=O)CCNC(=O)C(c1ccccc1)c1ccccc1	0.5	-13	4.2	i	-0.5	6	0.7
COc1cccc(C(=O)O[C@H]2[C@H](Cc3ccccc3)NS(=O)(=O)[C@H]3C[C@@H]4C=C[C@]23O4)c1	0.8	-3	-1.9	i	4.0	-3	x
COc1ccc(NC(=O)COC(=O)CNS(=O)(=O)c2ccc(C)cc2)c(OC)c1	0.8	-8	5.3	x	-1.5	-2	0.67
COc1ccc(N2CCN(C(=O)CCC(=O)c3cc(C)sc3C)CC2)cc1	3.7	x	1.5	i	5.7	6	0.66
COC(=O)c1c(NC(=O)Cc2cccs2)sc2c1CCCC2	6.6	-2	-1.2	x	-5.6	-8	0.8
CCN1C(=O)C2(C(C#N)=C(N)Oc3n[nH]c(-c4ccccc4)c32)c2ccccc21 (centres undefined)	2.9	2	0.6	x	6.6	3	0.66
COc1cccc(CN2CCCN(S(=O)(=O)c3ccc(Br)cc3)CC2)c1	1.2	0	2.0	x	-3.5	22	0.65
COC(=O)/C=C1\SC(=Nc2ccccc2)NC1=O	6.9	-6	4.2	x	0.7	3	0.65

A stretch from the list above, for reference:
SMILES	LANA-H2B inh	ALR H2O2 inh	UCH37 inh	FGF22 binding	HNF4A DNA FP	B2AR ag	E coli growth
O=C(c1ccco1)N1CCN(C(=O)c2ccc(-c3ccc([N+](=O)[O-])cc3)o2)CC1	-1.1	-6	14	i	-28	3	0.69
Nc1ccc(-c2ccc(N)cc2C(F)(F)F)c(C(F)(F)F)c1	-7.5	-3	4.6	x	-2.0	4	0.75

Next structures:
SMILES	LANA-H2B inh	ALR H2O2 inh	UCH37 inh	FGF22 binding	HNF4A DNA FP	B2AR ag	E coli growth
CC12CCC(=O)N1C(C(=O)NNC(=O)c1cccc(Cl)c1)CS2 (centres undefined)	0.4	x	1.8	i	6.6	9	0.68
CCOC(=O)c1cncc(NC(=O)c2ccccc2)c1	-3.3	-1	2.8	x	-1.2	-4	0.75
CC(C)OP(=O)(c1ccc(N(C)C)cc1)C(O)c1cccnc1 (centres undefined)	5.7	x	2.7	i	1.4	7	0.69
O=C(COC(=O)c1ncc(Cl)c(Cl)c1Cl)NCc1cccs1	4.3	0	2.5	x	3.8	-3	0.65
CCCc1ccc2oc(C(=O)N3CCC[C@H]3CO)c(C)c2c1	-4.3	-5	1.9	i	0.1	0	0.65
O=C(CN1CCN(S(=O)(=O)c2ccc(Cl)s2)CC1)N1CCCCC1	2.1	x	-0.1	i	1.4	0	0.67
CC(C)(C)c1nnc2sc(SCC(=O)c3ccc(Cl)cc3)nn2c1=O	-1.3	x	2.9	x	-0.7	-24	0.71
Cc1ccc2cccc(OCCCOc3ccccc3CO)c2n1	-1.0	-5	0.2	i	0.8	4	0.66
Cc1cnc(C(=O)OCC(=O)NC(=O)c2ccccc2)cn1	-0.3	-1	0.4	i	-0.3	-5	0.64
O=S(=O)(Cc1cc(-c2ccc(Cl)cc2)no1)c1ccccc1	-2.6	4	0.5	x	-1.0	2	0.82
O=C(c1ccc(F)cc1)C1CCN(C(=O)Nc2ccc(F)cc2F)CC1	-1.5	4	-2.1	i	-1.1	5	0.68
O=C(CC1C(=O)NCCN1C(=S)Nc1ccccc1)Nc1ccc2c(c1)OCCO2 (centres undefined)	0.8	-5	3.8	x	1.2	-1	0.7
COc1ccc(CNC(=S)Nc2cc(C)ccc2C)cc1	8.1	8	1.8	x	3.3	3	0.67
Cc1ccc(NC(=O)NCC2CCN(Cc3cccc(Cl)c3)CC2)c(Cl)c1	-4.8	x	1.5	i	-1.5	20	0.72
O=C(CSc1nnnn1C1CCCC1)Nc1ccccc1F	-0.8	-7	-2.1	i	-5.5	-6	0.69
CCc1cccc(NC(=O)CCc2nc3sc4c(c3c(=O)[nH]2)CCCC4)c1	5.3	-2	4.0	i	7.0	6	0.71
O=C(COC(=O)c1ccc(Br)o1)Nc1ccc2[nH]c(=O)[nH]c2c1	-0.7	x	0.6	i	1.1	1	0.71
CCC1CCCCN1CCCNC(=O)c1ccc2nc(N3CCCCC3)sc2c1 (centres undefined)	8.1	-1	4.2	i	2.8	-10	0.69
COc1ccc(S(=O)(=O)NC(CC(=O)O)c2ccco2)cc1 (centres undefined)	1.3	-3	-0.8	x	3.4	2	0.72
COc1ccc(OCC(=O)Nc2ccccc2C(=O)NC(C)C)cc1	8.7	23	6.2	i	1.1	-6	0.67
CCOc1ccc(N2C(=O)Nc3ccccc3C2(O)C(=O)NCc2ccc(F)cc2)cc1 (centres undefined)	-2.1	-2	-0.6	i	-2.7	5	0.68
CCC(C)(C)C(=O)Nc1cc([N+](=O)[O-])ccc1Cl	-2.0	0	5.4	i	1.2	-2	0.74
Cn1c(=O)c2c(nc(NCc3ccc4c(c3)OCO4)n2Cc2ccccc2)n(C)c1=O	-4.5	3	3.7	x	-1.2	-1	0.71
Cc1ccc(S(=O)(=O)NC(C)(C)CN2CCCCC2)cc1	-1.9	-4	-0.3	i	1.5	9	0.66
O=C(CN1C(=O)c2cccc3cccc1c23)Nc1ccc(S(=O)(=O)Nc2nccs2)cc1	-1.2	-30	-3.5	x	x	8	0.7

Some of these compounds in order of number of heavy atoms, falling.
SMILES	LANA-H2B inh	ALR H2O2 inh	UCH37 inh	FGF22 binding	HNF4A DNA FP	B2AR ag	E coli growth
Cc1oc(-c2ccccc2F)nc1CS(=O)CC(=O)NCCN1CCCCC1C (centres undefined)	0.6	u	-0.2	i	0.0	0	0.68
CCOC(=O)CCNC(=O)CCNC(=O)C(c1ccccc1)c1ccccc1	0.5	-13	4.2	i	-0.5	6	0.7
COc1ccc(OCC(=O)Nc2ccccc2C(=O)NC(C)C)cc1	8.7	23	6.2	i	1.1	-6	0.67
Cc1ccc2cccc(OCCCOc3ccccc3CO)c2n1	-1.0	-5	0.2	i	0.8	4	0.66
COc1ccc(S(=O)(=O)NC(CC(=O)O)c2ccco2)cc1 (centres undefined)	1.3	-3	-0.8	x	3.4	2	0.72
COc1ccc(CNC(=S)Nc2cc(C)ccc2C)cc1	8.1	8	1.8	x	3.3	3	0.67

Continuation:
SMILES	LANA-H2B inh	ALR H2O2 inh	UCH37 inh	FGF22 binding	HNF4A DNA FP	B2AR ag	E coli growth
CCC(C)NC(=O)CSc1n[nH]c(=O)n1CCc1ccccc1 (centres undefined)	0.1	-12	3.5	i	1.8	-2	0.7
COCC(=O)Nc1cccc2ccccc12	1.8	x	3.0	x	-4.4	2	0.71
CCCc1nc2ccccc2c(=O)n1NC(=O)c1c(O)c2cccc3c2n(c1=O)CCC3	-6.2	-4	-1.5	x	-0.9	7	0.74
CN1CCN(S(=O)(=O)c2ccc(NC(=O)c3ccc(Br)o3)cc2)CC1	-3.0	-8	3.8	x	0.2	-1	0.72
Fc1ccc(-n2nnc(-c3cccnc3Cl)n2)cc1	3.3	-10	3.4	i	1.2	-1	0.72
CC(C)(C)OC(=O)C(C(=O)OC(C)(C)C)c1ccc(Cl)nn1	-1.4	2	-1.9	i	-1.6	-9	0.68
C#CCOc1c(Cl)cc(/C=N/O)cc1OC	-3.8	18	x	i	0.7	9	x
O=C(COc1ccccc1F)Nc1ccc(S(=O)(=O)Nc2nccs2)cc1	-1.0	x	3.0	i	-0.4	9	0.59
CCOC(=O)C1=CN(Cc2cccc(F)c2)S(=O)(=O)NC1c1ccc(F)c(Cl)c1 (centres undefined)	x	x	2.1	i	0.2	3	0.7
COC(=O)c1ccc(CSc2ncn[nH]2)o1	0.2	-8	4.7	x	2.6	1	0.67
O=C(NCc1ccco1)NC12CC3CC(CC(C3)C1)C2	-0.3	-9	0.2	x	-3.3	-7	0.74
CCOCCCNC(=O)c1cn(C)c2ccc(S(=O)(=O)N3CCCCC3)cc2c1=O	-0.8	2	1.5	i	1.6	8	0.62
COc1ccccc1N1C(=O)C2C(C(=O)c3ccccc3)=NN(c3ccccc3OC)C2C1=O (centres undefined)	4.5	-13	-0.4	i	9.2	-2	0.67
COc1ccc(C2CC(=O)c3cc(OC)c(OC)cc32)cc1OC (centres undefined)	-1.3	3	3.5	i	5.7	-7	0.67
C=CCSc1nc2sc(C)c(C)c2c(=O)[nH]1	-3.8	-5	5.5	i	-1.2	-2	0.71
C=CCn1c(SCC(=O)Nc2sccc2C(N)=O)nc2sc(CC)cc2c1=O	4.5	8	-0.9	x	0.0	-3	x
CC(C)(C)NC(=S)N/N=C/c1c(Cl)cccc1Cl	2.3	6	x	i	1.4	3	x
COc1ccc(NC(=O)c2oc3ccccc3c2C)cn1	4.3	-53	2.5	i	0.8	-4	0.69
FC(F)(F)c1nnc2ccc(N3CCCCC3)nn12	-1.2	-1	5.5	i	0.5	3	0.63
O=C(c1cc(C2CC2)on1)N1CCOCC1	6.9	3	2.9	i	1.9	0	0.68
COc1ccc(OC)c(NC(=O)COC(=O)c2ccc(OC)c(S(=O)(=O)N3CCCC3)c2)c1	2.5	-37	2.9	i	3.0	-1	0.72
Cc1ccc(CN=Cc2[nH]c3ccc(Br)c(Cl)c3c2O)cc1	-5.4	7	7.1	i	46*	-231	0.69
CCN1CCN(Cc2c3ccccc3cc3ccccc23)CC1	-3.8	-21	-26	i	-5.0	2	0.6
Cn1c(CN2CCOCC2)nnc1SCC(=O)Nc1ccc2c(c1)OCCO2	-4.1	-21	6.9	x	5.0	-5	0.74
COc1cc(OC)cc(C(=O)Nc2ccc(-c3nc4ccccc4o3)cc2)c1	-5.1	-8	-120	x	-3.8	18	0.75
CC(C)Nc1nc(NC(C)C)nc(Oc2ccc(OCc3ccccc3)nn2)n1	1.8	-6	3.9	x	1.9	-9	0.77
